# Compound activity as filed in PubChem BioAssay.
# HNF4A DNA FP: change in binding of human HNF4A to DNA, primary screen, biochemical, fluorescence polarization, FITC-DNA; Hepatocyte nuclear factor 4-alpha (Homo sapiens), P41235; 1 h; activity change, % at 10 µM; 360,000 tested, 0.3% active; AID 1224865, 2016; in the data active = activity change above about 30%, passing the limit was not always enough;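 also: controls were the assay level and a saturating level of protein; the project sought stronger binding though the title names inhibitors; some compounds called inactive have numbers as strong as hits; positive values seem to mean higher polarization but the record does not say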
# LANA-H2B inh: blockers of LANA interaction with H2A/H2B – biochemical, FP readout, HTS, primary screen; cell-free LANA-H2A/H2B peptide, fluorescence polarization; inhibition, % (no concentration beside the values); 320,000 tested, 0.6% active; in the data active = inhibition mostly above about 10%, no sharp cut-off; inactive = mostly below about 6.7%;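 also: stock transfer was 7.5 nL into about 10 µL; 0% = median of vehicle wells and 100% = median of positive control wells; one replicate is shown; the record names a cut of 25% in any replicate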
# Target sequence (Q9QR71 whole entry, looked up): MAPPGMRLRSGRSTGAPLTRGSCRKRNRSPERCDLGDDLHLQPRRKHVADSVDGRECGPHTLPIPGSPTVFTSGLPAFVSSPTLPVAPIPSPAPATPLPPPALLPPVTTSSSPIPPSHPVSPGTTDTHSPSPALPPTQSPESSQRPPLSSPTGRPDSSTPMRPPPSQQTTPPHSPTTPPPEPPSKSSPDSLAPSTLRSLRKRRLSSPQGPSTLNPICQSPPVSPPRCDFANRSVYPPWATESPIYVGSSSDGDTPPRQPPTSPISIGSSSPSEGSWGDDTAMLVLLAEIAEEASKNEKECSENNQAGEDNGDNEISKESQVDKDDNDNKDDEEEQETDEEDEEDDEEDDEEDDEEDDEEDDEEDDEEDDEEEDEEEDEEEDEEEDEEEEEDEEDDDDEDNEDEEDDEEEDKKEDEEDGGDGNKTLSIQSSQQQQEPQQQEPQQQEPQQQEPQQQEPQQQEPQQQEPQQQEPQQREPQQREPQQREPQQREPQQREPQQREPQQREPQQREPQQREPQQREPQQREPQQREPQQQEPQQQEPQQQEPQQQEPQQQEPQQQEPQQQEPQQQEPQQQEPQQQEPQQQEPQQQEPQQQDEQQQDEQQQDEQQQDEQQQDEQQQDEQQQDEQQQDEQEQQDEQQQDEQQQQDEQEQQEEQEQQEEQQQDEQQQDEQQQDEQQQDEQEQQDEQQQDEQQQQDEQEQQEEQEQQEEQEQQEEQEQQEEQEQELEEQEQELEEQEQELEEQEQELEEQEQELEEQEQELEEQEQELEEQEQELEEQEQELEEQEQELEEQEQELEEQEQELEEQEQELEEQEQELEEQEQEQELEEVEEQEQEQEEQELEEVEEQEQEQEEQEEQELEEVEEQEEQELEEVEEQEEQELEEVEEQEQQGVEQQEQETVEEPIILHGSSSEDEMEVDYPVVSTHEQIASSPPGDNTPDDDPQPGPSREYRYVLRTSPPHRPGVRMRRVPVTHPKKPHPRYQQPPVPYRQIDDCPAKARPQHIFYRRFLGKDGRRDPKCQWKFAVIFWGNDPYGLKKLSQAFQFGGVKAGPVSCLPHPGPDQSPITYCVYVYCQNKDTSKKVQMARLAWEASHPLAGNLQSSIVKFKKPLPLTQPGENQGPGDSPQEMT
# RanGTP-Impb inh: inhibitors of RanGTP-importin-beta interaction, primary screen, biochemical, FRET, CFP-Ran, YFP-importin-beta, homogeneous. Ran GTPase (GTP-bound) - importin-beta complex. cell-free CFP-Ran/YFP-importin-beta FRET ratio. inhibition, % (no concentration beside the values). 300,000 tested, 1.1% active;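 active = most replicates above 15%; inconclusive = exactly half above 15%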;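 also: 0% = DMSO wells and 100% = Ran loaded with GDP instead of GTP; wells of about 40 µL received 100 nL stock; the first replicate is given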
# Beta2AR agonist: beta2AR agonists driving receptor internalization, primary screen, cell-based, FAP fluorogen, flow cytometry | Beta-2 adrenergic receptor (Homo sapiens), P07550 | Am2.2-beta2AR cells; reference of the scale not given here | response, % (no concentration beside the values) | 340,000 tested, 0.43% active | AID 504454, 2011;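 active = response above a set limit, near 3 SD of response in nonfluorescent compounds, cut at about 42% in these data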;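 also: stock transfer was 100 nL into about 11 µL; a reference agonist was the positive control; negative values mostly stem from fluorescent compounds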
# Vif TR-FRET: inhibitors of Vif binding to APOBEC3G peptide, primary screen, biochemical, TR-FRET, GST-Vif 1-94, biotin-A3G peptide, dose response retest (AID 1117319). 260,000 tested, 0.57% active. TR-FRET GST-Vif / biotin-A3G peptide binding; higher % means a stronger effect; test concentration not given here; strong numbers were not always called active. inhibition, %, or IC50 in µM where a hit was titrated;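 active = above the screen mean plus three standard deviations and confirmed in dose response; inconclusive = results disagree or hit not tested in dose response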;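 also: Vif residues 1-94 fused to GST binding biotinylated APOBEC3G peptide 110-148; 0% = full assay without inhibitor and 100% = GST in place of GST-Vif; retest series ran down from 100 µM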
# ALR H2O2 inh: inhibitors of human ALR sulfhydryl oxidase, primary screen, biochemical, H2O2 detection, HRP-luminol luminescence, single point. inhibition, % (test concentration not listed). purified ALR, DTT oxidation. 290,000 tested, 3.8% active. FAD-linked sulfhydryl oxidase ALR (Homo sapiens), P55789. AID 485317, 2010;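 active = mean and each replicate at 75% or more; inconclusive = only one of the two met; inactive = neither met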;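 also: stock transfer was 7.5 nL into about 7.5 µL; 0% = neutral wells and 100% = wells with inactivated enzyme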
# Calb FLC: C. albicans growth inhibition with fluconazole, primary screen, CaCi-2 strain, Alamar Blue fluorescence | 300,000 tested, 0.57% active | growth inhibition, % (test concentration not listed) | C. albicans CaCi-2 (fluconazole-resistant clinical isolate) + fluconazole, 48 h;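 active = most replicates above 75%; inconclusive = exactly half above 75%; inactive = most below 75%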;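 also: all wells also contain fluconazole at 8 µg/ml as a sub-toxic cotreatment; 0% = median of DMSO wells and 100% = median of geldanamycin control wells; wells of about 8 µL received 7.5 nL stock; the first replicate is given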
# An asterisk follows results filed as active; ? = inconclusive; · = not tested or not shown.
mol	HNF4A DNA FP	LANA-H2B inh	RanGTP-Impb inh	Beta2AR agonist	Vif TR-FRET	ALR H2O2 inh	Calb FLC
C/C(=N\NC(=O)CN(c1ccc(C)cc1)S(C)(=O)=O)c1cccs1	3.9	1.9	0.1	3	-4%	-4	-11
O=C(OCC(=O)N1CCN(C(=O)c2ccco2)CC1)c1cc(-c2cccc(Br)c2)nc2ccccc12	1.7	1.7	?	7	-9%	·	-13
O=C(Nc1cccc(F)c1)C1C2C=CC3(CN(CCCN4CCOCC4)C(=O)C13)O2 (configuration not stated)	-0.4	-6.8	4.3	8	-4%	-19	15
O=C(CSc1nnc2c(n1)[nH]c1ccccc12)Nc1cccc(S(=O)(=O)N2CCOCC2)c1	-0.5	3.2	3.1	0	-5%	-7	2
O=C(CN1CCN(c2cccc(Cl)c2)CC1)Nc1ccc([N+](=O)[O-])cc1C(=O)Nc1ccccc1F	-0.3	9.5	5.6	7	23%	-18	14
CCc1nnc(NC(=O)CSc2nc(N)c(NC(=O)c3ccc(OC)cc3)c(=O)[nH]2)s1	3.4	-2.4	?	4	-3%	-8	-4
CCOC(=O)c1c(NC(=O)CN2CCN(C(=O)c3ccco3)CC2)sc(C(N)=O)c1C	-0.8	0.0	1.0	-8	16%	-2	5
CC(C)NC(=O)CN1C(=O)CSc2ccc(S(=O)(=O)N3CCCC3)cc21	-4.2	-2.3	2.1	5	·	-2	-9
O=C(C(Cc1ccccc1)N1C(=O)C2C3CCC(C3)C2C1=O)N1CCCCC1 (configuration not stated)	3.9	1.3	0.6	3	5%	-1	-4
O=C(NC1CCCC1)C1CCN(C(=O)c2cc(Cl)ccc2Cl)CC1	-0.4	1.1	3.1	0	1%	-13	6
O=C(CCc1nnc2ccc(NCc3ccco3)nn12)N1CCN(c2ccccc2)CC1	-5.5	0.0	3.7	8	·	21	-6
Cc1ccc(C2=NN(C(=O)CSc3nc(N)cc(N)n3)C(c3ccco3)C2)cc1 (configuration not stated)	0.4	7.7	0.7	-3	-16%	-10	-23
CCN(Cc1ccc(OC)c(F)c1)C(=O)c1oc2ccccc2c1COC	0.8	-6.1	2.7	2	·	0	0
O=C(NCC1COc2ccccc2O1)c1cccc(S(=O)(=O)N2CCN(c3ccccc3)CC2)c1 (configuration not stated)	-6.8	·	·	-4	-6%	·	·
CCc1cccc(CC)c1NC(=S)Nc1cccc(Cl)c1Cl	-2.2	-8.3	-3.2	-3	·	-2	-6
NS(=O)(=O)c1ccc(NC(=O)CN2CCc3ccccc32)cc1	-2.0	-2.4	-4.9	-6	-5%	-8	3
Cc1cccc(C)c1NC(=O)CN1C(=O)S/C(=C\c2cccn2C)C1=O	2.5	5.6	-4.6	-5	-8%	-5	-3
CCOC(=O)c1ccc2nc(NC(=O)c3cccs3)sc2c1	3.0	-3.0	1.7	-3	-1%	-2	5
Cn1c(-c2c(N)n(-c3ccccc3)c3nc4ccccc4nc23)nc2ccccc21	8.2	1.4	-8.5	17	-17%	·	15
Cc1ccc(NC(=O)Cn2c(=O)oc3cc(S(=O)(=O)N4CCC(C)CC4)ccc32)cc1C	-0.1	3.9	-3.2	-3	2%	·	-1
COc1ccc(/C=N/NC(=O)c2cccnc2)cc1Cn1nc([N+](=O)[O-])c(Br)c1C	·	3.4	1.2	·	25%	-11	-1
CN(C)S(=O)(=O)c1cccc(NC(=S)N/N=C/C2CC=CCC2)c1 (configuration not stated)	-0.6	-0.3	?	-3	·	65	6
C[C@@H]1CCC[C@H](C)N1NC(=O)c1ccc(Cl)c(S(N)(=O)=O)c1	1.6	5.5	4.5	-2	29%	2	·
COc1ccc2sc(N(CCCN(C)C)C(=O)c3ccc(S(=O)(=O)N4CCCC4)cc3)nc2c1	2.9	-0.7	1.7	6	-5%	-5	-1
CCSc1cc(N2CCOCC2)nc(-c2ccc(Cl)cc2)n1	-2.2	5.8	-0.9	-4	-2%	-5	-14
CCOC(=O)c1c(/N=C/C2=C(O)CC(C)(C)CC2=O)sc2c1CCCC2	-0.5	1.9	2.1	-5	·	·	-6
CC(C)(C)c1ccc(C(=O)Nc2ccc(NC(=O)c3ccco3)cc2)cc1	1.2	-1.2	2.5	10	-2%	-4	-18
O=C(Nc1ccccc1)c1ccc(-c2ccccc2Cl)o1	-3.1	2.5	1.8	12	-10%	-3	-4
COC(CNC(=O)c1ccc2c(c1)ncn2-c1cccc(C)c1)OC	-1.2	2.5	-1.8	5	-2%	-10	9
O=C(COC(=O)Cc1ccc(F)cc1)NCCc1ccccc1	-0.1	-4.7	6.3	3	9%	·	2
O=C(/C=C/c1ccc(O)c([N+](=O)[O-])c1)c1ccc2ccccc2c1	0.7	1.1	-1.7	14	·	0	8
CCOC(=O)C1=C(c2cccc(F)c2)NC(=S)NC1C (configuration not stated)	4.2	-1.3	-3.2	-6	22%	1	9
Cc1ccc(S(=O)(=O)N2CCCCC2)cc1C(=O)NCCCN1CCOCC1	2.9	2.6	0.8	20	2%	-7	-2
COC(=O)c1c(NC(=O)c2ccc(OC(C)C)cc2)sc2c1CC(C)(C)NC2(C)C	-0.9	-4.2	?	38	·	-16	4
COC(=O)/C=C/C(=O)Nc1cccnc1	-2.6	2.5	-1.9	15	15%	95*	1
COCC(C)N1CCC(Oc2ccc(C(=O)NCc3ccccn3)cc2)CC1 (configuration not stated)	-1.6	3.2	3.9	4	·	-5	1
NC(=O)c1ccc[n+](CCC[n+]2cccc(C(N)=O)c2)c1	0.5	2.8	0.8	-1	·	0	10
Cc1ccc(/C=N/NC(=O)CN2CCN(Cc3ccccc3)CC2)s1	-2.2	-4.4	7.6	-1	-9%	-25	8
O=C(CSc1nc2ccccc2o1)N1N=C(c2cccs2)CC1c1ccc(F)cc1 (configuration not stated)	4.6	-1.0	-0.6	-5	·	0	7
O=C(NCc1ccc(Cl)cc1)N1CCc2ccccc2C1	-0.1	1.8	?	-4	·	-3	-2
COc1ccc(C2=CC(=O)C[C@H](c3ccc(OC)c(OC)c3)C2)cc1	-2.3	2.0	·	3	·	-3	·
CC1=C(C#N)C(c2ccc(O)cc2)C(C#N)=C(C)N1	-2.2	1.1	2.8	-6	8%	2	1
CC(=O)Nc1ccc(S(=O)(=O)N2CCSC2c2ccc(C)cc2)cc1 (configuration not stated)	-2.4	2.8	-1.5	10	4%	-3	4
COc1ccccc1NC(=O)c1ccc(C(=O)Nc2ccccc2OC)nc1	0.2	13	0.6	6	·	-17	-10
CCOC(=O)c1cccc(NC(=O)CCc2nnc3ccc(N4CCOCC4)nn23)c1	5.0	-3.4	1.6	-7	·	27	0
COCCOC(=O)c1c(C)oc2ccc(OC(=O)COc3c(F)c(F)c(F)c(F)c3F)cc12	1.1	-9.4	-3.3	-4	3%	0	-1
N#Cc1c(-c2ccc(F)cc2)c(-c2ccc(F)cc2)nn(CCO)c1=O	-0.1	·	·	-3	-4%	·	·
Cc1cc(=O)oc2c(C(=O)/C=C\c3cccs3)c(O)ccc12	1.9	4.0	0.2	1	-11%	18	27
COc1ccc(CN(C(=S)Nc2ccccc2)C2CC(=O)N(c3ccccc3)C2=O)cc1 (configuration not stated)	-6.2	-3.7	-2.5	1	·	7	4
COc1ccc(NC(=O)c2c(NC(=O)CCC(=O)O)sc3c2CCCCC3)cc1	4.2	-0.6	3.8	-5	10%	34	-37
Cc1ccnc(NC(=O)c2ccc3[nH]c(=O)c(=O)[nH]c3c2)c1	1.0	-3.6	2.8	2	·	-6	·
CCN(CC)S(=O)(=O)c1ccc(C(=O)NCc2n[nH]c(=S)n2Cc2ccccc2)cc1	2.9	-3.4	1.1	6	2%	?	1
COc1ccc(S(=O)(=O)N(C)C)cc1NC(=O)COC(=O)C1CC1	-2.9	2.5	·	32	·	-4	·
OCc1nc(CO)n(Cc2ccccc2)n1	4.1	-8.7	-0.1	2	19%	-2	16
Cc1nn(C(C)C(=O)NCCc2ccco2)c(=O)c2nn(-c3ccccc3)c(C)c12 (configuration not stated)	-1.1	7.9	-2.6	-1	·	9	-6
COc1ccc(C(=O)Nc2cc(=O)n(C)c(=O)n2C)cc1OC	1.5	1.9	1.1	1	10%	-20	2

# More entries:
mol	HNF4A DNA FP	LANA-H2B inh	RanGTP-Impb inh	Beta2AR agonist	Vif TR-FRET	ALR H2O2 inh	Calb FLC
C/C(=N\NC(N)=S)C1(C)CCCCC1	4.0	-0.9	0.9	-4	-6%	-16	-13
CC(C)N(C(C)C)S(=O)(=O)c1ccc(NN)nc1	7.5	1.6	3.2	-10	·	6	2
Nc1sc2c(c1C(=O)NC1CCS(=O)(=O)C1)CCC2 (configuration not stated)	5.0	4.1	0.8	4	30%	16	6
O=C(CN1CCN(CC(=O)Nc2cccc(F)c2)CC1)NCC1(N2CCOCC2)CCCCC1	-1.0	·	·	7	-4%	·	·
CN(CC(=O)Nc1ccccc1Cl)C(=O)COC(=O)C1=COCCO1	2.5	-1.8	2.1	6	2%	3	3
CC(=O)N1CCN(Cc2nc3cc([N+](=O)[O-])ccc3n2C)CC1	1.6	6.2	1.2	-3	0%	-17	-2
N#CC1CCN(c2ncccc2[N+](=O)[O-])CC1	3.5	0.0	1.1	-1	?	-11	25
Cn1nnnc1SCc1ccccc1F	6.0	-1.3	-1.4	6	-8%	-3	12
CCOC(=O)CSc1nc2c(c(=O)[nH]c(=O)n2C)n1Cc1ccccc1	-0.7	7.0	?	12	·	-31	1
COc1ccc(-c2ccc(C)cc2)cc1[C@H]1[C@H]2C=CC[C@@H](C)[C@@H]2C(=O)N1Cc1ccccc1	-10	0.7	1.6	9	·	4	-3
O=C(NC1=NN(c2ccccc2)CC1)Nc1ccccc1F	-0.7	0.8	-0.6	10	-7%	59	-5
CC(C)N(CCCNC(=O)C1CCN(C(=O)c2cc3sccc3n2C)CC1)Cc1ccccc1	-3.8	4.3	?	6	·	11	-11
CN(C(=O)c1cccc(NC(=O)Cc2ccc(NC(=O)C3CCCN(C(=O)C4CC4)C3)cc2)c1)C1CCCC1 (configuration not stated)	3.5	·	·	1	-3%	·	·
O=C(CN1CCN(CC(=O)Nc2ccccc2Cl)CC1)NCC1(N2CCOCC2)CCCCC1	2.3	·	·	5	-7%	·	·
Cc1nnc2ccc(-c3ccc(NS(=O)(=O)c4ccccc4[N+](=O)[O-])cc3)nn12	0.9	·	·	9	-1%	0	·
COc1ccc(OC)c(-n2nnnc2SCC(=O)Nc2ccccc2N2CCOCC2)c1	1.7	-0.3	?	2	0%	1	12
CCOC(=O)c1sc(NC(=O)c2c(C)nn(Cc3ccccc3)c2C)cc1C	-4.6	2.5	·	5	?	-10	·
COc1ccc(C(=O)c2sc(Nc3ccc(NC(C)=O)cc3)nc2C)cc1	2.3	-6.8	0.2	-1	-5%	-45	0
COc1ccc(C(=O)Nc2ccc(Cl)cc2C(=O)NCc2ccco2)cc1OC	0.6	-5.2	1.3	-2	-5%	20	27
CN(NC(=O)COc1ccccc1)c1ccccc1	-1.5	-0.2	1.8	-6	·	0	-9
Cc1ccc(C)c(NC(=O)COC(=O)CNC(=O)C2CCCCC2)c1	2.7	-33	·	-4	·	·	·
COc1ccc(NC(=O)c2cnn(-c3ccccc3)c2C)cc1OC	29	4.2	-5.1	3	·	-11	1
CCCn1c(C(C)Nc2nc(-c3ccc(OC)cc3)cs2)nc2ccccc21 (configuration not stated)	3.3	0.9	?	-6	·	38	-2

# Random draw from the library; about 6.3% have a hit in one of these screens.
